Source: PubChem BioAssay (Broad Institute)
Tgondii IFNg: T. gondii growth inhibition with IFN-gamma, primary screen, cell-based | actives 3.8% (n = 69,000) | AID 1259416, 2018 | Toxoplasma gondii growth in IFN-gamma-treated host cells; active compounds read low; reference of the scale not given here | activity change, negative = inhibition, %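 (about 20 µM by stock and volumes)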;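 active means below -70%; inconclusive means fit judged invalid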;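 further: host cells are HeLa cells infected with Toxoplasma gondii; parasite growth read as luciferase light; one replicate is shown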
* hit, by the source's call; i = inactive; ? = inconclusive; & = joins results of further samples.

SMILES	Tgondii IFNg
CCc1ccc(S(=O)(=O)N2C[C@@H]3OCCN(Cc4cnn(C)c4)[C@H]3C2)cc1	-14
CNc1ccnc(N2CCN(CCc3ccccc3)CC2)n1	-20
C[C@H](CO)N1C[C@H](C)[C@H](CN(C)S(=O)(=O)c2cn(C)cn2)OCCCC[C@H](C)Oc2ccc(NC(=O)Nc3cccc4ccccc34)cc2C1=O	i
Cc1cc2c(SCC(=O)N3CCc4c(nc[nH]c4=O)C3)ncnc2s1	-3
CCn1c(C2CCCN(Cc3ccccc3Cn3cccn3)C2)n[nH]c1=O (stereo unspecified)	-2
CCOC(=O)N1CCN(c2cc(C(C)C)nc(C)n2)CC1	-14
COc1cccc(OC)c1C(=O)NCCc1csc(-c2ccc(Cl)cc2)n1	35
Cc1cc(C)cc(NC(=O)C(=O)NCCc2csc(-c3ccc(F)cc3)n2)c1	-93*
O=C(CCC1(c2ccccc2)NC(=O)NC1=O)Nc1ccc(N2CCCCC2)c(F)c1 (stereo unspecified)	-26
C[C@@H]1CN([C@H](C)CO)C(=O)Cc2cc(N(C)C)ccc2O[C@@H]1CN(C)Cc1ccc(-c2ccccc2)cc1	-29
COc1cccc(C#Cc2ccc([C@H]3[C@@H](CO)N(C(=O)c4ccccn4)[C@H]3C#N)cc2)c1	-10
COc1ccc(-c2cc(C)cnc2-n2cnnc2)cn1	4
C[C@@H]1CCCCO[C@H](CN(C)C(=O)Cc2ccccc2)[C@H](C)CN([C@@H](C)CO)C(=O)c2cc(NS(C)(=O)=O)ccc2O1	123
O=C(C1CCOCC1)N1C[C@@H]2[C@H](c3ccccc31)[C@H](CO)N2C(=O)Cc1ccccn1	-25
CCc1ccc(N(C(=O)c2ccc(OC)cc2)C2(C(=O)NCc3ccccc3)CCN(C(C)=O)CC2)cc1	-17
COc1cccc(NC(=O)C2CC(=O)OC23CCOC(C)(C)C3)c1 (stereo unspecified)	8
COc1ncccc1C(=O)N(C)CC1CCCCO1 (stereo unspecified)	1
C[C@@H]1CN([C@@H](C)CO)C(=O)c2ccccc2-c2ccccc2CO[C@@H]1CN(C)C(=O)[C@H](Cc1ccccc1)N(C)C	-18
CN(C)CC1(O)CCCN(C(=O)c2cnc(-c3cccnc3)nc2)C1 (stereo unspecified)	-2
C/C=C/c1ccc2c(c1)O[C@@H](CN(C)C(=O)Nc1ccc(OC)cc1)[C@H](C)CN([C@@H](C)CO)S2(=O)=O	i
CCC1CCCCN1CC(=O)N1CCC(O)(c2ccc(C(F)(F)F)cc2)CC1 (stereo unspecified)	-65
CS(=O)(=O)N1[C@@H](C#N)[C@H](c2ccc(C#Cc3cccc(F)c3)cc2)[C@@H]1CO	46
CNC(=O)C[C@H]1C[C@@H]2CN(C(=O)N3CCCC3)C[C@H]2O1	40
CSc1nccc(-c2ccc(S(=O)(=O)n3nc(C)c(Br)c3C)s2)n1	-54
COc1ccccc1Nc1nc(-c2nnc(-c3ccccc3)o2)nc2ccccc12	-92*
O=C(CC1CC1)N[C@@H]1CN(Cc2ccoc2)C[C@H]2CCCO[C@H]21	-2
Cc1cccc(-c2nc(CSc3nc4c(=O)[nH]cnc4n3CC3CCCO3)c(C)o2)c1 (stereo unspecified)	11
COc1cccc(-c2nc(C)c(-c3ccc(SCc4ccc(Cl)c(Cl)c4)nn3)s2)c1	-41
O=c1cc(Cn2ccnc2)nc2n1CCCN(Cc1ccoc1)C2	6
CN(C)C(=O)N1CCO[C@H]2[C@@H](Oc3cccnc3)CC[C@H]21	20
O=C(CC(F)(F)F)N1C[C@H]2[C@@H](c3ccccc31)[C@H](CO)N2C(=O)c1ccncc1	14
CCCc1c(-c2ccc(O)cc2)nn(-c2ccc(O)cc2)c1-c1ccc(O)cc1	-26&-7
CCN(CCc1nc2ccc(F)cc2[nH]1)C(=O)c1c(C)noc1C	0
CCCc1cc(C2CCCCCN2Cc2cn(CC)nc2C)no1 (stereo unspecified)	31
O=C(CSc1nnc(NC2=NS(=O)(=O)c3ccccc32)s1)N1CCOCC1	21
COc1ccccc1NC(=O)NCCN1CCCC1	-53
O=C(NCc1cccc(Cl)c1)c1c(O)c2cccnc2[nH]c1=O	-36
S=C(NCCc1ccccn1)NN1C2CSC1CS2	-84*
COc1cc(NCCS(=O)(=O)c2ccc(C)cc2)ncn1	0
CCC1=NOC(CNC(=O)c2cnn3ccn(C)c23)C1 (stereo unspecified)	-45
Cc1[nH]cnc1CN1CCOc2c(O)cc(-c3cccc(Cl)c3)cc2C1	?
COc1ccc(CN(C)c2ccc3ccc(C(=O)N4CCC(N(C)C)C4)cn23)cc1 (stereo unspecified)	3
O=C(CSc1ccccn1)Nc1ccccc1Sc1nccc(C(F)(F)F)n1	-33
CCCc1cc(C(=O)N2CCC3(CCC(=O)N(C)CC3)CC2)ccn1	1
Cc1c(S(=O)(=O)N2CCC(c3cc(C(=O)NCc4cccs4)on3)CC2)cnn1C	91
COC(=O)Nc1nc2ccc(C(=O)c3ccc(F)cc3)cc2[nH]1	-68
CCOc1ccc(-c2nc(CN(c3ccccc3C)S(=O)(=O)c3cccs3)c(C)o2)cc1OC	-63
CCS(=O)(=O)N1CCC2(CC1)COCCN(c1cccnc1)C2	4
Cc1cc(C)n(-c2cccc(-c3ccc(S(N)(=O)=O)cc3F)c2)n1	-7
CC(C)C(NC(=O)C1CCNCC1)c1nnc2n1CCNCC2 (stereo unspecified)	-1
COc1ccc(CCN(C)CCCN2CCc3cc(OC)c(OC)cc3CC2=O)cc1OC	18
CC(Oc1ccccc1F)C(=O)NCCc1cnccn1 (stereo unspecified)	19
O=C(O)C[C@H]1CC[C@@H]2[C@H](COC[C@@H](O)CN2S(=O)(=O)c2ccc(Oc3ccccc3)cc2)O1	21
COc1cccc(CNC(=O)[C@H]2[C@H](CO)[C@H]3Cn4c(ccc(C5=CCCC5)c4=O)[C@@H]2N3)c1	-20
CCOc1cccc(C2c3[nH]c4ccccc4c3CCN2C(=O)COc2ccccc2)c1 (stereo unspecified)	i
Cc1nc2c(nc(SCc3nc(-c4ccccc4Cl)oc3C)n2C)c(=O)[nH]1	25
Cc1[nH]c(-c2ccccc2)nc1C(=O)N1CCN2C(=O)CN(C)C(=O)C2C1 (stereo unspecified)	-2
Cc1ccc2[nH]c(=O)c(Cc3ccccc3)c(O)c2c1	10
c1ccc(COCCN2CCC3(CCOCC3)CC2)cc1	-20
O=C1CC(C(=O)N2CCc3ccccc3C2)CN1CCc1c[nH]c2ccc(F)cc12 (stereo unspecified)	107
Carrying on.
SMILES	Tgondii IFNg
Oc1cccc2ccc(CN3CCCC(OCc4cccnc4)C3)nc12 (stereo unspecified)	-5
O=C(C[C@@H]1CC[C@@H]2NC[C@H](O)COC[C@H]2O1)N1CCc2ccccc2C1	7
CC1(C)CC(=O)C(C(=O)CCCCC(=O)C2C(=O)CC(C)(C)CC2=O)C(=O)C1	-2
COc1ccc(C)cc1NC(=O)C(=O)NCCc1sc(-c2cccc(C)c2)nc1C	72
CCN(C(=O)c1cc2cccnc2n(Cc2ccccc2F)c1=O)C1CCCCC1	0
CCCCC/C=C\C[C@@H](O)/C=C/C=C/C=C\[C@@H](O)CCCC(=O)O	17
CO/N=C(/C(=O)NC1C(=O)N2C(C(=O)O)=C(CSc3nc(=O)c(=O)[nH]n3C)CSC12)c1csc(N)n1 (stereo unspecified)	-6
COc1ccc(C(=O)Nc2ccc(-c3nc(Cn4nc(C)c(C)c4C)c(C)o3)cc2)cc1	-93*
CC(C)c1nn(C)c2c1C(c1nc(-c3ccc(Cl)cc3)no1)CC(=O)N2 (stereo unspecified)	-85*
C[C@@H]1CCCCO[C@H](CN(C)Cc2ccc(Cl)c(Cl)c2)[C@@H](C)CN([C@H](C)CO)C(=O)c2cc(NC(=O)CCCCCC(=O)Nc3ccccc3N)ccc2O1	133
O=C(c1ccccc1Br)N1CCC2(CC1)Nc1ccccc1-n1cccc12	17
O=C(CC1CCc2ccccc21)NCc1cnn2ccccc12 (stereo unspecified)	6
CC1CCN(S(=O)(=O)c2ccc3c(c2)CCC(=O)N3CC(=O)NC2CCCCCCC2)CC1	1
CC(C(=O)Nc1ncc(Cc2ccccc2Cl)s1)N1CCOCC1 (stereo unspecified)	-22
Cc1cc(=O)[nH]c(-c2ccccc2O)n1	20
COCCCNC(=O)C1=C(C)C(=O)OC12CCN(S(C)(=O)=O)CC2	14
CS(=O)(=O)N1CCC2(CC1)CC(NCc1cccs1)c1ccccc12 (stereo unspecified)	-94*
CNC(=O)c1ccc(CN2CCCC(CCc3ccccc3C)C2)cc1 (stereo unspecified)	-7
C[C@@H]1CCCCO[C@@H](CN(C)S(=O)(=O)c2ccc(F)cc2)[C@@H](C)CN([C@H](C)CO)C(=O)c2cc(NC(=O)CCCCCC(=O)Nc3ccccc3N)ccc2O1	34
O=C(CN1CCN(S(=O)(=O)N2CCCC2)CC1)Nc1ccc2c(c1)OCCCO2	11
CO[C@@H]1CN(C)C(=O)c2cc(NC(=O)Nc3c(C)noc3C)ccc2OC[C@H](C)NC[C@H]1C	207
O=C1NCCN1CCN1CCS(=O)(=O)CC1	-18
COc1ccc(OC)c(-n2c(/C=C/c3ccc4c(c3)OCO4)nc3ccccc3c2=O)c1	19
Cc1ccc2c(CC(=O)NCc3csc(C)n3)cc(=O)oc2c1	-3
CCN1CCC2(CC1)OC(=O)C(C)=C2C(=O)NCCCN1CCCC(C)C1 (stereo unspecified)	29
O=C(CC1C(=O)NCCN1CCc1ccccc1)NC1(CO)CCCC1 (stereo unspecified)	-12
CC(C(=O)NCc1ccccc1-n1cccn1)n1cnc2ccccc21 (stereo unspecified)	10
C1CCC(c2nc3c(c(N4CCOC5(CNCCOC5)C4)n2)CNC3)C1 (stereo unspecified)	1
O=C(O)CCS(=O)(=O)Cc1ccccc1	25
CCc1nc(CN2CCC(c3ccnc(-c4cccc(O)c4)c3)C2)c(C)[nH]1 (stereo unspecified)	-3
Cc1cn(CCC(=O)NC2Cc3ccccc3C2)c2ccccc12	97
C[C@H](CO)N1C[C@H](C)[C@@H](CN(C)Cc2ccc(F)cc2)Oc2cc(C#CC(C)(C)O)ccc2S1(=O)=O	-95*
CO[C@@H](CN(C)C(=O)C1CCOCC1)[C@@H](C)CN([C@@H](C)CO)S(=O)(=O)c1ccccc1	-17
O=C(c1c(F)cccc1F)N1CCN(S(=O)(=O)c2cc3c4c(c2)CCN4C(=O)CC3)CC1	25
CSc1nn(-c2ccccc2)cc1-c1noc(-c2cccs2)n1	97
O=C(CO)N1CC[C@H]2[C@H]1CC(=O)N2c1ccsc1	86
CC(=Nc1ccccc1)C1=C(O)CCCC1=O	15
N#Cc1ccc(NCCNCC(=O)N2CCC[C@H]2C#N)nc1	-9
COc1cccc(-c2cc(C(=O)NC(C)c3nc(-c4cccc(C)c4)no3)on2)c1 (stereo unspecified)	57
COc1ccc(C(=O)N2CCC(c3ccc(C(=O)N4CCOCC4)cn3)CC2)cn1	-1
CC(C)CN(Cc1ccccn1)C(=O)[C@@H](N)Cc1ccccc1	-8
O=C(Cn1c(NCCCO)nc2ccccc21)c1ccccc1	-22
CCN1c2ccccc2C(=O)NC12CCN(C(=O)Cc1ccc(C)cc1)CC2	79
C[C@@H]1CCCCO[C@H](CN(C)C(=O)CCCN(C)C)[C@@H](C)CN([C@@H](C)CO)C(=O)c2cc(NC(=O)Nc3ccc4c(c3)OCO4)ccc2O1	127
O[C@@H]1C[C@H]2CN(Cc3cc(Cl)ccc3C(F)(F)F)C[C@H]2C[C@@H]1O	28
CN1CCN(C(=O)C[C@@H]2CC[C@@H]3[C@@H](COc4ccc(NC(=O)C5CCOCC5)cc4C(=O)N3C)O2)CC1	13
Cc1ccc(-c2cc(-n3cnc4c(-c5ccc(C)cc5)nsc4c3=O)n[nH]2)cc1	10
Cc1ccc(-c2nnc(-c3nc(Nc4nc5ccccc5s4)c4ccccc4n3)o2)cc1	-6
CCOCC12CCCOC1CCN(C(=O)N1CCCC1)C2 (stereo unspecified)	-1
COc1ccccc1N1CCN(C(=O)c2cc3cccnc3n(Cc3ccc(Cl)cc3)c2=O)CC1	-14
Cc1c(C(=O)NCc2cccnc2-n2ccnc2)nnn1Cc1ccccc1	124
O=C(Cn1ncc2c(N3CCN(c4ccccn4)CC3)ncnc21)Nc1ccc(F)cc1Cl	269
c1ccc(-c2cc3ccsc3s2)cc1	36
CCc1ccc(-c2cc3c(=O)n(Cc4nc(-c5cc(Br)ccc5OC)oc4C)ccn3n2)cc1	195

Only part of the results is shown (hit frequency here may not be typical).
